Source: PubChem (National Center for Advancing Translational Sciences (NCATS))
miR-21 FLuc – raises the signal of a miR-21 reporter. Potency, µM (series often up to 38.3 µM), without a hit: top-dose reporter change, positive = more light. HeLa miR-21 FLuc reporter, luciferase, 48 h. AID 2288. 340,000 tested, under 10 active; active = well fitted rising curve with a large enough effect; inconclusive = small, poorly fitted or top-dose-only effect; inactive = no such curve, though single readings can be large or run the other way;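 also: % of control where 0% means no effect; miR-21 action dims this reporter so a rising signal means less miR-21 action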
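Compounds were titrated across several concentrations (up to approximately 40 uM) and incubated 48 hours with HeLa miR-21-FLuc reporter cells (miR-21 target sequence downstream of FLuc, endogenous miR-21). Readout was firefly luciferase luminescence after lytic detection reagent.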
GLA inh pH 4.5 – blocks human alpha-galactosidase A at pH 4.5; P06280; purified enzyme, 4-MU-alpha-Gal fluorescence, pH 4.5; activity change, negative = inhibition, % at 105 µM; 230,000 tested, under 10 active; AID 1467; inconclusive = small, poorly fitted or top-dose-only inhibition, or a rising curve; inactive = flat fitted curve, though single readings scatter; no compound was filed as active;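 also: 0% = full activity with enzyme and -100% = basal without enzyme; dose as in the result columns while the protocol names 77 µM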
Target sequence (P06280 whole entry, looked up): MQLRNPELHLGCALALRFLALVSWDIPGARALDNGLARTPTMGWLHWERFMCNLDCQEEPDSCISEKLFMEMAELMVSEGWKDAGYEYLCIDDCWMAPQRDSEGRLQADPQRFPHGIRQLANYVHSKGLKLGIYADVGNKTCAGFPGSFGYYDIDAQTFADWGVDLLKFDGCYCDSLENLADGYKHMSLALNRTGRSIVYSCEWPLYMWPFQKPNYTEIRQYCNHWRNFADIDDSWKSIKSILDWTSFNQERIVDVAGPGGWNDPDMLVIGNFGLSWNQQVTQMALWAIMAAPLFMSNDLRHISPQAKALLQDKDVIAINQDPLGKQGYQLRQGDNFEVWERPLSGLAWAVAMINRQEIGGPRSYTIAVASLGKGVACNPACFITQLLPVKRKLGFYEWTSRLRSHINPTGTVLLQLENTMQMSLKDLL
Rango complex inh – Rango-importin beta binding inhibition; AID 540263; Q14974; actives 0.031% (n = 340,000); Rango CFP/YFP FRET sensor + importin beta, 45 min; Potency, µM (titrated, usually from 92.2 µM), for inactives: at the top dose inhibition of complex formation; active = rising FRET ratio curve, often small or poorly fitted; inconclusive = mostly compound fluorescence or quenching in the first reads; inactive = flat curves in all reads;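 also: potency is read from the fitted curve at half-maximal effect; 0% = DMSO wells and 100% = buffer wells lacking importin beta; nearly all actives have a fitted effect of over 15% in size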
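FRET biosensor (snurportin 1 IBB flanked by EYFP and cerulean), 50 nM, with compound 5 min, then 0.125 microM importin beta in PBS, 1 mM DTT, 0.02% Tween-20, 0.1% BSA. CFP/YFP ratio read after 45 min at room temperature; pre-read flags interference.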
Rango dissoc inh – inhibitors of RanGTP-induced Rango-importin beta complex dissociation. O95149+P62826. actives 0.071% (n = 340,000). Potency, µM (top dose mostly 46.1 µM), inactives show top-dose activity change, negative = inhibition. Biochemical FRET Rango-importin beta, RanGTP-induced dissociation; active means falling FRET ratio curve, often poorly fitted, with flat reads before Ran was added; inconclusive means other falling curves, or compound fluorescence or quenching; inactive means flat or rising ratio curve;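 also: potency is read from the fitted curve at half-maximal effect; % of control where 0% means no effect; nearly all actives have a fitted effect of over 45% in size; -100% = wells without RanGTP and RCC1; the record marks most hits as doubtful in a second field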
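FRET read at 45 min, room temperature: inhibitors block the CFP/YFP signal rise when RanGTP (0.6 uM Ran, 2 mM GTP, 0.2 uM RCC1) frees Rango (0.1 uM) from importin beta (0.25 uM). Pre-read after 5 min compound exposure flags interference.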
* marks the source's active call; other numbers are inactive results; ? = inconclusive; . = no result given; & = joins results of further samples; [ ] = another dose, or the depositor's remark.

Each structure is followed by: miR-21 FLuc	GLA inh pH 4.5	Rango complex inh	Rango dissoc inh
> Cc1ccc(-c2nn(-c3ccccc3)cc2CN(Cc2ccccc2)C(=O)c2ccco2)o1
 : ?	-3	-1.5%	-8%
> COc1ccc(C(C#N)N2CCC(c3ccccc3)=N2)cc1 (configuration not stated)
 : -27%	.	?	?
> COc1cc(-c2nnc3sc(Cc4ccccc4)nn23)cc(OC)c1OC
 : -5%	-8	1.2%	-6%
> Cc1cccc(C)c1NC(=O)COC(=O)C1CC1
 : .	.	3.4%	-9%
> O=C(NNC1=NS(=O)(=O)c2ccccc21)c1ccccc1
 : -3%	6	5.2%	?
> O=C(CSc1nc2ccccc2s1)NNC(=S)Nc1ccc(Cl)cc1
 : -6%	3	-2.0%	-4%
> O=C(COc1coc(CN2CCN(Cc3ccccc3)CC2)cc1=O)Nc1ccccc1
 : .	.	-1.2%	-7%
> CCOC(=O)c1ccc(NC(=O)Cn2c(=O)oc3ccccc32)cc1
 : -2%	.	2.9%	-9%
> OC1CCC(Nc2ncnc3sccc23)CC1 (configuration not stated)
 : -6%	.	-1.9%	-3%
> CNc1oc(C)nc1S(=O)(=O)c1ccccc1
 : -2%	0	0.0%	14%
> O=C(O)CC/C(=N/NC(=O)CNC(=O)c1ccc2c(c1)OCCO2)c1ccccc1
 : -1%	.	3.7%	2%
> COc1cc(OC)cc(C(=O)NC(C(=O)NCCc2ccccn2)C(C)C)c1 (configuration not stated)
 : .	.	0.0%	5%
> O=C(CCNC(=O)Cn1ccc2ccccc2c1=O)NCCC1=CCCCC1
 : 2%	4[21.1 µM]	-4.5%	2%
> CC(C)N=C(NC#N)SCc1ccccc1F
 : -11%	-2	-1.1%	-7%
> CC1CNC(=S)N(c2ccc(F)cc2)C1=O (configuration not stated)
 : .	.	-3.6%	4%
> Cc1ccc(C(=O)CSc2nnc(C(C)C)n2C)cc1C
 : 2%	-7	-0.9%	0%
> N#C/C(=C\c1ccc(-c2ccccc2)o1)C(=O)Nn1cnnc1
 : -3%	-3	-0.3%	18%
> Cc1nc2c(C)cccn2c1/C(O)=C1\C(=O)C(=O)N(CCN2CCOCC2)C1c1cccs1 (configuration not stated)
 : -2%	-2	-0.4%	-19%
> COc1ccc(NC(=O)C(NC(C)=O)C(=O)NCc2ccc(F)cc2)cc1 (configuration not stated)
 : 3%	-2	-0.7%	19%
> COc1ccccc1CNC(=O)CS(=O)(=O)c1ccccc1
 : -1%	.	0.0%	7%
> CCc1ccc(NC(=S)N2CCN(c3cccc(C(F)(F)F)c3)CC2)cc1
 : -2%	0	-2.2%	-4%
> O=C(c1cc(-c2cccc(O)c2)on1)N1CCCCC1
 : -11%	2	1.4%	-9%
> CC(=O)CSc1nc(C(F)(F)F)cc(=O)n1-c1ccccc1
 : -4%	1	-2.7%	11%
> COc1ccc(C2=NN(CC(=O)Nc3cc(C)ccc3C)C(=O)CC2)cc1
 : -18%	-3	?	-28%
> C#CCNC(=O)C1=C[C@@H](c2ccc3c(c2)OCO3)[C@H](CCCO)[C@@H](OCC)O1
 : 0%	0	-0.8%	1%
> COc1cc2c3c([nH]c2cc1F)C(=O)NCC3
 : .	.	-3.4%	-9%
> O=C(c1ccccc1)C1C(c2ccccc2)C1[N+](=O)[O-] (configuration not stated)
 : -25%	5	-2.2%	-10%
> O=C(NCc1ccc2c(c1)OCO2)c1c(Cl)cccc1Cl
 : -5%	.	-0.1%	20%
> CCCCNC(=S)N/N=C1\CCCCc2ccccc21
 : -10%	-7	5.7%	12%
> Cc1c(C(=O)N2CCCCC2)sc(NC(=O)C23CC4CC(CC(C4)C2)C3)c1C#N
 : .	.	-0.2%	8%
> O=C(COc1cccnc1[N+](=O)[O-])NC1CCS(=O)(=O)C1 (configuration not stated)
 : -2%	-3	0.7%	4%
> CC(=O)N/N=C/c1cc(C)n(-c2ccc(Br)cc2)c1C
 : -2%	-1	-0.1%	-5%
> O=C(NCCS(=O)(=O)N1CCN(c2ccc(F)cc2)CC1)C12CC3CC(CC(C3)C1)C2
 : .	.	4.0%	40%
> Cc1cc(C)c(NC(=O)C2=COCCO2)c(C)c1
 : .	.	?	-12%
> COc1ccc(C2CC(c3cccs3)=NN2C(=O)COC(=O)c2cc3ccccc3cc2O)cc1OC (configuration not stated)
 : -3%	-9	0.7%	-18%
> O=C(NCC(=O)N1CCCCC1)c1sc2ccccc2c1Cl
 : .	.	-1.4%	-1%
> Cc1ccccc1-c1noc(CCC(=O)NC2CCCCC2)n1
 : -3%	.	-3.5%	2%
> CCN1CCN(C(=O)/C(C#N)=C/c2ccc(OC(F)F)cc2)CC1
 : -3%	-13	3.6%	20%
> COC(=O)CCCC1=CC2=C(c3ccccc3)C(=O)C(C)(OC(=O)C3CCCC3)C(=O)C2=CN1C(CO)CO (configuration not stated)
 : -1%	9&-4	?	?
> CCOC(=O)c1sc(C)c2c1NC(c1ccc(Cl)cc1)NC2=O (configuration not stated)
 : 2%	12	2.3%	-10%
> Cc1csc(NC(=O)CCNS(=O)(=O)c2ccc3c(c2)c(=O)n(C)c(=O)n3C)n1
 : 1%	-1	-0.2%	4%
> NC(=O)CSc1nnc(NC(=O)C23CC4CC(CC(C4)C2)C3)s1
 : -49%	.	-2.2%	12%
> O=C(NC(=S)Nc1ccccc1N1CCCCC1)c1ccc(F)cc1
 : -1%	.	-0.4%	1%
> COc1ccccc1NS(=O)(=O)c1ccc2c(c1)NC(=O)C(C)S2 (configuration not stated)
 : 17%	.	5.5%	4%
> COc1ccc(N2C(=O)CC(NCc3cccs3)C2=O)cc1 (configuration not stated)
 : -2%	3	-1.2%	3%

A few values from the entries so far.
Rango complex inh, `COc1ccc(C2CC(c3cccs3)=NN2C(=O)COC(=O)c2cc3ccccc3cc2O)cc1OC` (configuration not stated) → 0.7%
GLA inh pH 4.5, `Cc1csc(NC(=O)CCNS(=O)(=O)c2ccc3c(c2)c(=O)n(C)c(=O)n3C)n1` → -1

Next compounds follow.
Each structure is followed by: miR-21 FLuc	GLA inh pH 4.5	Rango complex inh	Rango dissoc inh
> Cc1cc(NC(=O)c2ccc3c(c2)OCO3)ccc1NC(=O)c1ccccc1
 : -29%	.	-1.3%	-1%
> COc1ccc2cc(C3(C)NC(=O)N(CC(=O)Nc4c(C)n(C)n(-c5ccccc5)c4=O)C3=O)ccc2c1 (configuration not stated)
 : 0%	-4	-3.7%	-6%
> CCc1cccc2c(C(=O)CSc3nncn3-c3ccccc3OC)c[nH]c12
 : -14%	?	-0.6%	0%
> CN(CCCNC(=O)c1cccc(N2CCCC2=O)c1)c1ccccc1
 : -10%	-2	-0.9%	-11%
> CN(C)C(=O)N(CCCN1CCOCC1)Cc1cccc2ccccc12
 : -3%	2	0.3%	-3%
> CC(C)(C)NS(=O)(=O)c1ccc2nc(NC(=O)c3ccc(N4C(=O)CCC4=O)cc3)sc2c1
 : 3%	4	-2.0%	5%
> COc1ccccc1NS(=O)(=O)c1cc(C(=O)NCc2ccncc2)ccc1C
 : .	.	0.1%	-2%
> CC1=Nc2ccccc2/C1=C/c1sc(=S)n(-c2cccc(C(=O)O)c2)c1O
 : -2%	-11	?	?
> Cc1scc(C(=O)N/N=C/c2ccco2)c1C
 : -40%	3	0.9%	10%
> Cc1cc(C(=O)Nc2c(C)nn(Cc3ccc(Cl)cc3)c2C)no1
 : 8%	2	-1.6%	0%
> CCOCC(=O)Nc1ccccc1C(=O)O
 : -3%	-11	-3.8%	1%
> CCOC(=O)c1c(C)oc2c1c(C(c1ccccc1)N1CCOCC1)c(O)c1ccccc12 (configuration not stated)
 : -67%	2	2.6%	-5%
> COCCNC(C)C(=O)C12CC3CC(CC(C3)C1)C2 (configuration not stated)
 : -2%	-3	2.6%	-1%
> C=CCn1c(-c2ccc(S(=O)(=O)N3CCOCC3)cc2)csc1=Nc1ccccc1
 : 0%	7	1.8%	5%
> Cc1ccc(C(=O)NCC(c2ccco2)N2CCc3ccccc32)cc1C (configuration not stated)
 : .	.	1.0%	-20%
> S=C(NC1CCCCC1)N1CCc2ccccc2C1
 : -20%	2	-3.3%	3%
> O=C(N/N=C/c1cc(Br)c(Br)o1)C(O)c1ccccc1 (configuration not stated)
 : -15%	2	0.4%	1%
> CCc1ccccc1NC1Nc2cc(C)nn2S1 (configuration not stated)
 : -5%	5	-1.7%	3%
> O=C(CN1CCN(C(=O)c2cncn2-c2ccccc2)CC1)Nc1ccccc1Cl
 : .	.	-1.1%	0%
> CCN(CC(=O)Nc1ccc2c(c1)OCCO2)S(=O)(=O)c1ccccc1
 : -22%	.	0.5%	2%
> CN(C)CCCNC(=O)c1ccc(/C=N/O)nc1
 : -60%	2	-0.8%	7%
> Cc1ccc(N2CCN(c3ncccc3[N+](=O)[O-])CC2)c(C)c1
 : -8%	.	-3.7%	1%
> O=C(O)c1ccc(S(=O)(=O)c2ccc3c(c2)C(=O)N(CC2CCCO2)C3=O)cc1 (configuration not stated)
 : 0%	6	3.2%	4%
> CC(C)(C)NC(=O)CCCSc1nc2ccccc2s1
 : -25%	2	-0.7%	14%
> Cn1c2c(c3ccccc31)CCN1CCC[C@]21c1ccccc1
 : 0%	.	0.9%	0%
> COc1ccc(Cn2c(N)c(C#N)c3nc4ccccc4nc32)cc1
 : -8%	18	?	?
> Cc1ccccc1OCc1n[nH]c(=S)n1-c1cccc(Cl)c1
 : -4%	.	-1.3%	13%
> CC1(C)C[C@H]2C3=CCC4[C@@]5(C)CC[C@H](O)[C@](C)(CO)C5CC[C@@]4(C)[C@]3(C)CC[C@@]2(C)[C@H](O)[C@@H]1O (some centres not stated)
 : .	.	-2.9%	0%
> O=C(CCl)c1ccc2[nH]c(=O)oc2c1
 : 0%	-1	-0.7%	11%
> Cc1ccc(OCC(=O)Nc2ccc3oc(=O)ccc3c2)c(C)c1
 : -1%	.	4.4%	26%
> Cc1cc(NC(=O)C(C)SCC(=O)Nc2ccccc2N2CCCCC2)no1 (configuration not stated)
 : .	.	-0.7%	-2%
> CCN(c1ccccc1)S(=O)(=O)c1ccc2[nH]c(=O)[nH]c2c1
 : -8%	0	-0.9%	7%
> COc1ccc(OC)c(C2=NOC(C(=O)Nc3ccccc3SC)C2)c1 (configuration not stated)
 : -9%	1	-4.3%	-3%
> COc1cc(-c2noc(C)c2C(=O)N[C@@H](CO)Cc2ccccc2)cc(OC)c1OC
 : .	.	-2.4%	7%
> COc1ccc(CNc2nc(NCc3ccc(OC)cc3)n(C(=O)c3ccccc3[N+](=O)[O-])n2)cc1
 : -30%	-25	2.4%	0%
> Cc1ccc(NCc2nnc(SCC(=O)N3CCc4ccccc43)n2C)cc1
 : -5%	-1	-2.7%	0%
> Cc1ccsc1C(=O)N/N=C/c1ccc([N+](=O)[O-])cc1
 : -52%	-4	4.3%	-12%
> Cc1ccc(C)c(S(=O)(=O)N2CCCOC2CNC(=O)C(=O)NCCCn2ccnc2)c1 (configuration not stated)
 : -2%	-6	0.7%	21%
> Cc1cccc(NS(=O)(=O)c2c(C)n[nH]c2C)c1
 : 5%	?	-0.1%	-10%
> CC(=O)Nc1ccc(S(=O)(=O)N(C)CC(=O)NCCC2=CCCCC2)cc1
 : 2%	.	-1.7%	1%
> CC(C)C(OC(=O)c1cccs1)C(=O)NCc1ccc2c(c1)OCO2 (configuration not stated)
 : -4%	7	-2.1%	-11%
> CCOC(=O)c1c(NC(=O)COC(=O)CCOc2cc(C)ccc2C)sc(C(=O)N(C)C)c1C
 : .	.	-1.3%	17%
> CCOc1ccc(NC2=NC(C(=O)NCc3ccccc3)CC(=O)N2)cc1 (configuration not stated)
 : -6%	16	7.0%	3%
> Cc1ccc2c(c1)cc1c(=O)[nH]ncn12
 : -47%	3	0.7%	-4%
> CCn1nc(NS(=O)(=O)c2ccc([N+](=O)[O-])cc2)c2cc3ccc(C)cc3nc21
 : -6%	.	-0.1%	-8%
> CCn1cc(CN2CCc3c([nH]c4ccccc34)C2c2cccc(OC)c2OC)c(C)n1 (configuration not stated)
 : -3%	-10	?	-16%

2 of the compounds above, comma-delimited.
structure,miR-21 FLuc,GLA inh pH 4.5,Rango complex inh,Rango dissoc inh
Cc1cccc(NS(=O)(=O)c2c(C)n[nH]c2C)c1,5%,?,-0.1%,-10%
Cc1ccc2c(c1)cc1c(=O)[nH]ncn12,-47%,3,0.7%,-4%

Not all compounds are listed, so the mix of outcomes need not match the whole.
